KCNQ2 block – KCNQ2 potassium channel inhibitors, primary screen, cell-based, CHO-K1, FluxOR thallium flux, B-score (AID 2156). O88943. 20 min; active compounds read low; only compounds with negative scores are shown here; some inactives read as strong as hits. B-score at 10 µM. 310,000 tested, 1.1% active;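 active means fluorescence ratio B-score at most minus 3 library SDs, with starting brightness B-score within 2 library SDs, cut at about -5.5 in these data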
Target sequence (O88943 whole entry, looked up): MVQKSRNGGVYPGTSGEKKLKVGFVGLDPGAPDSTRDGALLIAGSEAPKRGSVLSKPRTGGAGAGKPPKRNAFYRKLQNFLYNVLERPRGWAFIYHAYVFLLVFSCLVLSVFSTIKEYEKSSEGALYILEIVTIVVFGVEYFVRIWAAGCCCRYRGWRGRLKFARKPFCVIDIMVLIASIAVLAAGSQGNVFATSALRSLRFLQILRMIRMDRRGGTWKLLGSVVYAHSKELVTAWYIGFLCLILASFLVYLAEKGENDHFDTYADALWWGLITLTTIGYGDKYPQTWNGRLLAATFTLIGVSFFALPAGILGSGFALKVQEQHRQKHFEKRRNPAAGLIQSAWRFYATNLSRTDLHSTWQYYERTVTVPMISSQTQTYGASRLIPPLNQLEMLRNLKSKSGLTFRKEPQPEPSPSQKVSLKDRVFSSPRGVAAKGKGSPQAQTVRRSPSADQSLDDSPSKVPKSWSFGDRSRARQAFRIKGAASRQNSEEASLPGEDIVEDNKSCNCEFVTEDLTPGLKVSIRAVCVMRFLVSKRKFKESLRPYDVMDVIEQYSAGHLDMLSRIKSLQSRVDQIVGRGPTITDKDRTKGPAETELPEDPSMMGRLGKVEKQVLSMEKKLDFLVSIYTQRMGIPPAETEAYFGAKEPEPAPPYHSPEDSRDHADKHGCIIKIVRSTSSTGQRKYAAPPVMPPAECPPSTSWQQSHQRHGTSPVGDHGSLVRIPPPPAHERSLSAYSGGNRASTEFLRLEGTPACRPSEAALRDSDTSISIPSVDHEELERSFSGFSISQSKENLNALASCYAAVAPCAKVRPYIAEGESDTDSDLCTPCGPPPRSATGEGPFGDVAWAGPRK
KCNQ2 block baseline – also measured in KCNQ2 block; calls as there; B-score; measured here: initial fluorescence intensity artifact check;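 brightness before thallium and not channel activity; 0 = typical well and far values either way flag optical interference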
* marks the source's active call; other numbers are inactive results; i = inactive; & = joins results of further samples. Only part of the results is shown, so the mix of outcomes need not match the whole.

Molecule	KCNQ2 block	KCNQ2 block baseline
CCS(=O)(=O)N1CCN(c2cnn(-c3ccccc3)c(=O)c2Cl)CC1	i	0.11
CCCCCCCCCCCCCCCCn1cc[n+](C)c1	i	12&22
O=C(Nc1nc(-c2ccccn2)cs1)c1cc(Cl)ccc1[N+](=O)[O-]	i	1.1
CCOC(=O)c1c(C)nc2sc(C(=O)Nc3ccc(OC)cc3)c(N)c2c1-c1ccc(OC)cc1	i	-0.22
COc1ccc2nc(NC(=O)CSc3nnc(C)n3N)sc2c1	i	2.2
CCCCn1c(N)c(N(CC(C)C)C(=O)COC(=O)C2(c3ccccc3)CC2)c(=O)[nH]c1=O	i	1
Cc1ccc(C)c(Cc2c(C)nc3c(C(=O)N4CCOCC4)cnn3c2C)c1	i	-0.18
O=C1CCCN1CC(O)CS(=O)(=O)Cc1ccc(Cl)cc1 (stereo not drawn)	i	-2.2
O=C(CCc1ccccc1F)N1CCN(c2ccc(C(F)(F)F)cn2)CC1	i	-2
CCC(C(=O)Nc1cc(F)ccc1F)n1nc(C)c2c(C)n(-c3ccc(C)cc3)nc2c1=O (stereo not drawn)	i	-1
COC(=O)c1ccccc1NC(=O)C(C)c1ccc([N+](=O)[O-])cc1 (stereo not drawn)	i	0.65
COc1ccc([N+](=O)[O-])cc1NCc1ccccc1C	i	0.36
Cc1nn(-c2ccccc2)c2c1C(c1ccc([N+](=O)[O-])cc1)C(C#N)=C(N)O2 (stereo not drawn)	i	-0.71
O=C(NCCCc1ccccc1)C1CCC(=O)N(Cc2ccc(Cl)cc2)C1 (stereo not drawn)	i	2.2
Cc1ccc(NC(=O)Nc2ccccc2CC[N+](=O)[O-])cc1	i	-0.01
Cc1ccc2nc3c(cc(C(=O)NCC4CCCO4)c(=N)n3C3CCCC3)c(=O)n2c1 (stereo not drawn)	i	-0.43
O=C(Nc1cc2c(cc1Br)OCCCO2)c1ccccc1	i	-0.25
COC(=O)c1nn(-c2ccc(Oc3ccccc3)cc2)c(=O)cc1O	i	-2.7
Cc1ccc(C(=O)Nc2ccc(O)cc2C(=O)O)cc1C	i	-0.11
CCOC(=O)N1CCN(c2nc(N(c3ccccc3)c3ccccc3)nc(-n3ccnc3)n2)CC1	-6*	0.22*
Cc1cc(CN(C)C(=O)c2ccc(OC3CCN(S(=O)(=O)N(C)C)CC3)cc2)n[nH]1	i	-0.03
COc1cc(CCC(=O)OCC(=O)Nc2c(F)cccc2F)cc(OC)c1OC	i	0.18
O=C(OC1CO[C@H]2O[C@@H]1[C@H](OC(=O)c1ccccc1)[C@H]2OC(=O)c1ccccc1)c1ccccc1 (stereo partly drawn)	i	-0.55
Cc1ccc(C)c(N(C(=O)Cn2nnc(-c3cccs3)n2)C(C(=O)NC2CCCC2)c2ccncc2)c1 (stereo not drawn)	i	1.7
CN(C)S(=O)(=O)c1cccc(NC(=S)NCc2ccco2)c1	i	-0.23
C=CCN1N=C(/C=C/c2ccccc2)CCC1=O	i	0.16
Cc1cc(/C=C(/C#N)c2cccc(F)c2)c(C)n1-c1cccnc1	-8*	-0.9*
CCn1nc(NC(=O)c2ccncc2)c2cc3cccc(C)c3nc21	i	0.97
O=C(CC1SC(N2CCCCC2)=NC1=O)Nc1cccc(C(=O)Nc2ncccc2O)c1 (stereo not drawn)	i	1.8
CCS(=O)(=O)N1CCC(C(=O)Oc2ccc(C)c(C)c2)CC1	i	-1.7

Molecules from the list above containing an aryl methoxy group (four):
Molecule	KCNQ2 block	KCNQ2 block baseline
CCOC(=O)c1c(C)nc2sc(C(=O)Nc3ccc(OC)cc3)c(N)c2c1-c1ccc(OC)cc1	i	-0.22
COc1ccc2nc(NC(=O)CSc3nnc(C)n3N)sc2c1	i	2.2
COc1ccc([N+](=O)[O-])cc1NCc1ccccc1C	i	0.36
COc1cc(CCC(=O)OCC(=O)Nc2c(F)cccc2F)cc(OC)c1OC	i	0.18

The list continues.
Molecule	KCNQ2 block	KCNQ2 block baseline
Cc1ccc2c(c1)N/C(=C(\C=C(/Cl)[N+](=O)[O-])[N+](=O)[O-])N2	-6.8*	-0.53*
COc1cccc(CNC(=O)CCNC(=O)Cn2ccc3ccccc3c2=O)c1	i	2.1
CC1C(=O)OC(c2ccc(Br)cc2)C(C)(C)C1=O (stereo not drawn)	i	0.05
COC(=O)CNC(=O)C1CCC(CNS(=O)(=O)c2cccc3nsnc23)CC1 (stereo not drawn)	i	1.6
COc1ccc(S(=O)(=O)N2CCN(C(=O)COc3ccccc3)CC2)cc1	i	-1.3
CC(C)(C)NC(=O)CCN(/N=C/c1ccccc1F)C1=NS(=O)(=O)c2ccccc21	i	0.04
Cc1c(Cl)cccc1NC(=O)CNCc1ccccc1F	i	-0.48
CCc1ccc(-c2csc3ncn(Cc4ccc(C(=O)O)cc4)c(=O)c23)cc1	i	-1.8
O=S(=O)(NC(=NCc1ccccc1)c1ccccc1)c1ccccc1	i	0.46
O=C(C1=COCCO1)N(Cc1nnc(-c2ccc(Cl)cc2)o1)C1CC1	i	-0.16
O=C(CCC(=O)Nc1ccccc1)N/N=C/c1ccccc1F	i	-0.68
CCOc1ccc(S(=O)(=O)NNC(=O)c2cc3ccccc3o2)cc1	i	-0.5
Clc1ccc(-c2nnc(-c3ccccc3)c(-c3ccccc3)n2)cc1	-6.2*	0.38*
CCSc1nc(O)c(CC)c(=O)n1C(C)CC (stereo not drawn)	i	-1.8
N#Cc1ccccc1OCC(=O)C1CC1	i	1.5
CC(=O)N1N=C(c2ccco2)CC1c1cc2cc(C)ccc2nc1Cl (stereo not drawn)	i	1.1
CCc1n[nH]c(=S)n1N=C1CCC(C)CC1 (stereo not drawn)	i	3.5
COCCN=C1NC(=O)C(CC(=O)Nc2cccc(Cl)c2C)S1 (stereo not drawn)	i	-0.02
COc1ccc(/C(O)=C2/C(=O)C(=O)N(c3ccccn3)C2c2ccc(F)cc2)cc1 (stereo not drawn)	i	2
CCOc1cccc(-c2nc3c(s2)CCc2onc(-c4cccc([N+](=O)[O-])c4)c2-3)c1	i	-0.6
O=C(c1ccccc1Cl)N(Cc1ccccc1F)N1C(=O)CCCC1=O	i	0.61
Cc1ccc(-c2cc(C(=O)N3N=C(C(F)F)CC3(O)C(F)F)c3ccccc3n2)cc1C (stereo not drawn)	i	0.27
Cc1ccc(-c2nc3ccc(Cl)cc3n2OC(C)C(=O)O)cc1 (stereo not drawn)	i	0.11
COc1ccc(C(=O)NC2CCCc3ccccc32)c(OC)c1OC (stereo not drawn)	i	-3.7
Cc1ccc(C)c(C(=O)CN2C(=O)c3ccccc3S2(=O)=O)c1	i	-0.04
Cc1cc([N+](=O)[O-])nn1CCC(=O)NC1CCCCCC1	i	1.9
COc1ccccc1CNC(=O)C(NC(=O)C1CCCCC1)C(C)C (stereo not drawn)	i	2.5
COCOc1ccc(-c2cc(=O)c3c(O)cc(OCOC)cc3o2)cc1	i	0.18
CCc1ccc(OCC(=O)O/N=C(\N)c2cccnc2)cc1	i	0.79
O=C1NC(c2ccncc2)Nc2sc3c(c21)CCCC3 (stereo not drawn)	i	2

Single records, from the list above.
Entry for CCc1ccc(OCC(=O)O/N=C(\N)c2cccnc2)cc1 = KCNQ2 block: i; KCNQ2 block baseline: 0.79
Entry for Cc1ccc(C)c(C(=O)CN2C(=O)c3ccccc3S2(=O)=O)c1 = KCNQ2 block: i; KCNQ2 block baseline: -0.04

Next entries.
Molecule	KCNQ2 block	KCNQ2 block baseline
Cc1cnc(C)c(N2CCN(Cc3cn(C)nc3-c3cccc(Cl)c3)CC2)n1	i	0.14
CS(=O)(=O)N(CC(=O)O)Cc1cccc(CN(CC(=O)O)S(C)(=O)=O)c1	i	-1.5
CSCCCNC(=S)Nc1ccc(N2CCOCC2)cc1N1CCOCC1	i	0.49
O=C(Nc1ccccc1N1CCOCC1)c1cccc(Oc2ccccc2)c1	i	0.59
Cc1ccc(/C=C/C(=O)N2CCCN(C(=O)/C=C/c3ccc(C)cc3)CC2)cc1	i	-0.96
O=C(c1ccc(Cl)cc1)c1ccccc1C(=O)N1CCOCC1	i	-0.76
CC(=O)c1ccc(OCCCC(=O)NC2=NCCS2)cc1	i	-2.2
Clc1ccccc1CONc1ncnc2nonc12	i	1.5
C#CCOC(=O)C[N+](C)(C)CC=C	i	-0.33
O=C(Cc1cccs1)N1CCN=C1SCc1ccccc1F	i	0.53
Cc1ccccc1NC(=O)NC1CCCc2ccccc21 (stereo not drawn)	i	-3.1
COc1ccc(CN2CCNC(=O)C2CC(=O)NC2CCCCCC2)cc1C (stereo not drawn)	i	0.81
Cc1nn(-c2ccc(F)cc2)c2sc(C(=O)N3CCCCCC3)cc12	i	-0.48
N=c1sccn1CC(=O)Nc1cccc(S(N)(=O)=O)c1	i	0.32
C=CCNc1scc(-c2ccccc2)[n+]1CC=C	i	1
C#CCOCCOCCOCCNc1nc(N2CCN(C(=O)[C@H]([C@@H](C)CC)n3cc([C@@H](N)CC(C)C)nn3)CC2)nc(N2CCN(C(=O)[C@H](Cc3ccc(O)cc3)n3cc([C@@H](N)C(C)CC)nn3)CC2)n1 (stereo partly drawn)	i	0.97
COc1ccccc1CNC(=O)[C@H](C)NC(=O)[C@@H]1Cc2ccccc2CN1	i	-0.29
O=C(CC12CC3CC(CC(C3)C1)C2)NCC(=O)N1CCc2ccccc2C1	i	3.3
c1ccc2c(C[C@@H]3CNCCN3CC3CCCCC3)cccc2c1	i	-1.9
O=C(NCCc1ccccc1)C1CCCN(c2cnccn2)C1 (stereo not drawn)	i	0.39
Fc1ccc(-c2csc3ncnc(N4CCN(c5ccccc5)CC4)c23)cc1	i	1
O=C(c1cc2c(s1)CCCC2)N1CCN(S(=O)(=O)c2ccccc2C(F)(F)F)CC1	i	0.97
O=C(c1sc2cc(Cl)ccc2c1Cl)N1CCN(CCc2ccccn2)CC1	i	2.2
COc1ccc(CNC(=O)c2ccc(=O)oc2)cc1OC	i	0.73
NNC(=O)c1sccc1OCc1ccc(F)cc1	i	1.8
Cc1cccc(C)c1OCC(=O)N(Cc1ccco1)C1CCS(=O)(=O)C1 (stereo not drawn)	i	-0.41
CCC(=O)c1ccc(OC(=O)N2CCOCC2)cc1	i	-1.4
Cc1ccc2c(c1)C(O)(C1COC(C)(C)CC1=O)C(=O)N2C (stereo not drawn)	i	2.2
CCC1CCC(C(=O)NC(CCSC)C(=O)NCCN(CC(C)C)CC(C)C)CC1 (stereo not drawn)	i	0.8
COc1ccc(CCNC(=O)COC(=O)c2ccccc2NCCO)cc1OC	i	-0.04
Nc1nc(Sc2ncccc2[N+](=O)[O-])n[nH]1	i	-1.4
Cc1ccc(C(=O)N2c3ccccc3N(Cc3ccccc3)C(=O)C2(C)C)cc1	-5.6*	-0.75*
Cc1ccc(S(=O)(=O)NCCCCCC(=O)NC(C)(C)CO)cc1	i	-1.1
Cc1ccc(C(=O)O)cc1Nc1ncnc2sc3c(c12)CCC3	i	0.48
CCN1CCN(S(=O)(=O)c2ccc(Cl)c(C(=O)Nc3cc(Cl)ccc3N3CCOCC3)c2)CC1	-6.7*	0.08*
CS(=O)(=O)N(CCc1ccccc1)CC(=O)N1CCN(Cc2ccc3c(c2)OCO3)CC1	i	-0.08
COCC1CCN(Cc2nc(Cc3ccccc3Cl)no2)CC1	i	0.99
C=CCn1c(N)cc(=O)nc1SCC(=O)Nc1ccccc1	i	-0.01
O=P(CCCCCCCCCP(=O)(c1ccccc1)c1ccccc1)(c1ccccc1)c1ccccc1	i	0.84
O=C(NC1CCN(C(=O)N2c3ccccc3Sc3ccccc32)CC1)c1ccco1	i	-2.4
COc1ccc(NC(=O)Nc2ccc(C)cc2Br)c(OC)c1	i	0.16
CC(=O)c1ccc2cccc3c2c1N=CN3C	i	5.1
CCOC(=O)c1ccc2c(c1)nc(SCC(=O)c1cc3ccccc3o1)n2CC	i	-1.8
Cc1ccccc1C(=O)NC(=S)Nc1sc2c(c1C#N)CCCC2	i	0.35
CCOC(=O)c1sc(=S)n(-c2ccccc2Cl)c1C	i	2.3
O=C(COc1cccc(F)c1)NNC(=O)c1cccc(-n2cccc2)c1	i	1.2
O=C(Cn1nnc2ccccc2c1=O)NCCc1ccc(F)cc1	i	1.7
CCN(C(=O)CSc1nc2nc(C)cc(C)n2n1)C1CCS(=O)(=O)C1 (stereo not drawn)	i	0.89
COc1ccc(OCC(O)CN(CCO)CC(O)Cn2ccc3ccccc32)cc1 (stereo not drawn)	i	-0.72
CCOC(=O)c1nc(Nc2ccc(N3CCC(C)CC3)cc2)c2ccccc2n1	i	0.02
Cc1ccc(C(=O)N(NC2=NS(=O)(=O)c3ccccc32)S(=O)(=O)c2ccc(C)cc2)cc1	i	-1.4
O=C(NCc1cccnc1)c1noc2c1CCCCC2	i	-0.17
OCCCn1c(CCNc2nc(-c3ccc(F)cc3)cs2)nc2cc(C(F)(F)F)ccc21	i	0.28
Cc1ccc(C(O)c2nc3ccccc3n2C(C)C)cc1 (stereo not drawn)	i	0.86
CC1CC(C)CN(S(=O)(=O)c2ccc(C(=O)Nc3nnc(C4CC4)o3)cc2)C1 (stereo not drawn)	i	-3.2
O=C(Nc1ccc(F)cc1F)c1cccnc1	i	0.85

High-throughput results (PubChem BioAssay)
